D2 ag: agonists of human D2 dopamine receptor (beta-arrestin); P14416; DiscoveRx PathHunter D2 beta-arrestin, luminescence, 90 min; 100% = 57 uM dopamine signal; activation, % (concentration not given with the values); 360,000 tested, 0.084% active; AID 624465; in the data active = activation above about 40%; inconclusive = about 15% to 40%; inactive = below about 15%; further: compound concentration not given in the record; the text of the record calls up to 30% inactive
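DiscoveRx PathHunter D2 beta-arrestin cells (2,100/well) attached overnight, then compound-stimulated 90 min at 37 C in HBSS/10 mM HEPES/0.1% Tween-20 buffer; beta-galactosidase complementation read by luminescence after 1 h at ambient temperature. Dopamine 57 uM final (EC100) as control.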
Six1-Eya2 blk: Six1/Eya2 interaction inhibition | activity change, % (concentration not given with the values) | AlphaScreen GST-Six1/His-Eya2 binding, biochemical; active compounds read low; control for the full effect not named in the record | AID 651725 | 360,000 tested, 0.56% active | Q15475+O00167; in the data active = activity change below about -65%; inconclusive = about -30% to -65%; inactive = above about -30%; further: on the % scale 0 is the no-effect control and ±100 the full control effect
Target sequence (O00167 whole entry, looked up): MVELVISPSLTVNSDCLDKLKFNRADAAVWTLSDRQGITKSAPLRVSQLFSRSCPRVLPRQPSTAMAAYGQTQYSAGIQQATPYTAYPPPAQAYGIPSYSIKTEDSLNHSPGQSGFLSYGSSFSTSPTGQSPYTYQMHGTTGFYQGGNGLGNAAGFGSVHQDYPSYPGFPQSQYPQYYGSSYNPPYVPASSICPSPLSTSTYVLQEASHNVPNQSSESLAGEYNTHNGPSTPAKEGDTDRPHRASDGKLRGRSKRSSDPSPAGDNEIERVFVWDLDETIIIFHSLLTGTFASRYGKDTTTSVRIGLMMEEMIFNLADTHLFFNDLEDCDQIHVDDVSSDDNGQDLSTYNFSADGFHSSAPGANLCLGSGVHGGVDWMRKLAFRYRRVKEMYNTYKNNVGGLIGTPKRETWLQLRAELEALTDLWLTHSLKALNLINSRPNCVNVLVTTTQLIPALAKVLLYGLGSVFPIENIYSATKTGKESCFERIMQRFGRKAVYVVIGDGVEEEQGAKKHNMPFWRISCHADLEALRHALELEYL
Target sequence (Q15475 whole entry, looked up): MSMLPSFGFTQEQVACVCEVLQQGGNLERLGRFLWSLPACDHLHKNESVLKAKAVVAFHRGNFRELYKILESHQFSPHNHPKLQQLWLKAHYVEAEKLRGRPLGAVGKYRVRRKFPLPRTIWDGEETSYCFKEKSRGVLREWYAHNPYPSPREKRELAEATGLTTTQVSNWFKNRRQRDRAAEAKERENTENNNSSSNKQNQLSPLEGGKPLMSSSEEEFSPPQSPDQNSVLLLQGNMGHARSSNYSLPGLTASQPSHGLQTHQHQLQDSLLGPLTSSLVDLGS
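Compounds are tested against tagged Six1 and Eya2 proteins bridged by glutathione donor and nickel acceptor beads; after a one-hour incubation at 37 °C without light, AlphaScreen emission is recorded.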
TRPML1 agonist: human mucolipin-1 channel agonism | Q9GZU1 | activation, % (concentration not given with the values) | 410,000 tested, 0.12% active | TRPML1-expressing cells, Ca2+ dye fluorescence, FDSS; host cell line not named in the record; reference of the full effect not given here; in the data active = activation above about 50%; inconclusive = about 30% to 50%; inactive = below about 30%; further: 0% is about no effect; the text of the record puts the active cut at 80%
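In this qHTS format, compounds were pin-transferred onto Ca8-dye-loaded TRPML1-DL cells induced with Tet overnight, and intracellular Ca2+ fluorescence was recorded kinetically for 110 s after a 10 s baseline. A subsequent 4uM final 54-4 (EC80) addition followed by a second 110 s read served as the antagonist phase.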
TRPML1 inh: human mucolipin-1 channel inhibition. TRPML1-inducible cells, Ca2+ dye fluorescence, FDSS; active compounds read low; inhibition of EC80 agonist-evoked calcium signal. activity change, negative = inhibition, % (no concentration beside the values). 390,000 tested, 0.02% active. Q9GZU1; in the data active means activity change below about -50%; inconclusive means about -30% to -50%; inactive means above about -30%;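 further: stimulus is agonist 54-4 at its EC80 concentration; on the % scale 0 is the no-effect control and ±100 the full control effect; compound concentration not given in the record; the text of the record puts the active cut at -80%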
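Tet-induced TRPML1-DL cells loaded with Ca8 no-wash calcium dye were read kinetically on FDSS. Compound addition was followed by EC80 agonist 54-4 (4 uM final); inhibition was read over 110 s.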
D2 potentiator: positive allosteric modulators of human D2 dopamine receptor; P14416; DiscoveRx D2 beta-arrestin cells, luminescence, 90 min; 100% = 57 uM dopamine signal; potentiation, % (test concentration not listed); 360,000 tested, 0.23% active; AID 624464; active = potentiation of 50% or more; inconclusive = 30% to 50%; inactive = 30% or less;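 further: compound concentration not given in the record; tested on top of an EC20 dose of dopamine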
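D2 cells co-treated with compound plus 50 nM dopamine (EC20) for 90 min at 37 deg C to detect potentiation. Beta-arrestin recruitment was read as enzyme-fragment luminescence after 1 h at ambient temperature. Full response was set by 57 uM dopamine.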
PINK1 modulator: PINK1 expression modulation. PINK1 immunofluorescence, high-content cytometry, 24 h. Potency, µM (top dose mostly 76.6 µM), without a hit: at the highest dose activation (PINK1 increase), usual class: activators. 410,000 tested, 0.2% active. AID 624263; active = well fitted activation curve with a large enough effect; inconclusive = small, poorly fitted or top-dose-only effect; inactive = flat fitted curve, though single readings scatter; cell line not stated here;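 further: potency means the concentration at half of the fitted maximal effect; % of control where 0% means no effect; nearly all actives have a fitted effect of over 65% in size; a mitochondrial uncoupler was the plate control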
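Stable cell line, 250 cells/well, 12 h attachment; compounds pinned at 5 concentrations, 24 h; CCCP control. Fixed with nuclear dye, primary antibodies 12 h at 10 degrees C, secondary plus cell stain; laser-scanning cytometer read.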
* = called active by the depositor; ? = inconclusive; nt = not tested or not shown; & = joins results of further samples; [ ] = dose if it differs, or a comment.

SMILES	D2 ag	Six1-Eya2 blk	TRPML1 agonist	TRPML1 inh	D2 potentiator	PINK1 modulator
COc1ccccc1[C@@H]1C(c2ccccc2)=NN(c2ccc(Br)cc2)[C@H]1C(=O)N1CCOC1=O	-2.3	27	-0.4	22	-1	-0.2%
COc1ccc(CCNc2nc(-c3ccc(F)cc3)cc(C(F)(F)F)n2)cc1OC	nt	nt	2.9	-5	nt	8.5%
Cc1c(C(=O)OCC(=O)NCC2CCCO2)cccc1[N+](=O)[O-] (configuration not stated)	-7.4	1	-0.1	-12	-6	-0.2%
CC(=O)c1sc(NC(=O)CCOc2ccccc2)nc1C	-0.1	4	0.1	-5	-1	0.9%
Cn1nc(C(=O)Nc2cc(Cl)ccc2N2CCCC2)c2ccccc2c1=O	-2.5	0	0.8	64	-15	0.0%
O=c1ccc(C(F)(F)F)cn1Cc1cc(=O)n2cc(Br)ccc2n1	1.9	-4	4.8	-2	8	-0.4%
O=C(CCCn1cc([N+](=O)[O-])cn1)Nc1ccc2c(c1)OCO2	-2.8	4	0.6	4	-5	-0.4%
COc1ccc(Cl)cc1NC(=O)c1oc(C)nc1C	-0.6	0	0.1	-9	-8	-1.7%[38.3 µM]
COc1ccc(N(CC(=O)NCCSc2ccccc2)S(C)(=O)=O)cc1	1.7	-2	2.2	30	-12	-1.0%
CCOc1ccc(C(=O)Nn2cnnc2)cc1	-0.2	10	0.3	12	-3	29%[38.3 µM]
Cn1c(=O)c2c(SCC(=O)Nc3ccc4c(c3)OCCO4)nc(CC(C)(C)C)nc2n(C)c1=O	2.2	2	1.9	11	-4	-0.6%
CCOCCCn1c(C)nc2c(c1=O)c1nc3ccccc3nc1n2CCC1=CCCCC1	0.2	0	0.1	7	-6	14%
Cc1c(C)n(C)c2ccc(C(=O)N3CCN(c4ccccn4)CC3)cc12	11	-13	0.1	41	11	3.3%
Cc1ccc(S(=O)(=O)c2nc(-c3ccco3)oc2SCC(=O)c2ccc(Cl)cc2)cc1	nt	nt	0.2	-4	nt	2.0%
CCN(CC)C(=O)c1sc(NC(=S)N2CCN(C(=O)C3CCCO3)CC2)c(C(=O)OC)c1C (configuration not stated)	-2.4	0	-0.3	-3	7	4.5%
O=C(c1cccnc1)N1CCCc2ccccc21	5.0	4	-0.7	-10	19	-0.3%[38.3 µM]
Cc1c(C(=O)N2CCCC2(C)C(=O)NCC(C)C)oc2ccccc12 (configuration not stated)	9.1	14	-1.0	nt	2	-0.4%
O=C(c1ccc(Cl)cc1)C(CN1CCCCC1)c1ccccc1 (configuration not stated)	-5.1	2	3.8	-5	-10	-2.0%
Cc1cccc(-n2c(O)c(C=Nc3ccc(O)cc3)c3ccccc3c2=O)n1	-5.4	-6	0.5	32	1	0.8%
Cc1ccc(-c2cc(C(=O)N3CCN(c4ccccc4O)CC3)c3ccccc3n2)o1	-2.5	-6	0.3	-3	15	-1.1%
COc1ccc(C)cc1S(=O)(=O)N(C)CC(=O)NCc1ccco1	0.3	6	-0.8	10	10	0.0%
COC(=O)[C@@H](CC(C)C)N(Cc1ccccc1)S(=O)(=O)N(Cc1ccccc1)[C@@H](CC(C)C)C(=O)OC	-1.6	10	4.8&4.2	?	-9	6.1%
COC(=O)C1CN(C(=O)C(C)Oc2ccccc2F)c2ccccc2O1 (configuration not stated)	-2.4	2	-0.8	16	-6	-2.1%
COC(=O)c1ccc(COn2c(=O)c(C)[n+]([O-])c3ccccc32)cc1	2.4	3	0.0	10	-2	nt
NC(c1csc(Nc2cc(Oc3ccccc3)ncn2)n1)c1ccccc1Cl (configuration not stated)	?	-26	0.5	nt	-2	6.5%
CC(C)CSc1ncnc2c1oc1nc3c(cc12)COC(C)(C)C3	-0.1	3	-0.3	11	21	4.9%
O=C(CSc1nnc(-c2ccco2)o1)c1ccc(O)cc1O	-1.0	2	-0.7	-9	-1	13%
CCOC(=O)c1sc(=NC(=O)c2c(F)cccc2F)n(C)c1C	-7.0	6	0.7	13	-12	1.5%
CCS(=O)(=O)c1ccc(C(=O)NC)c(Cl)c1Cl	1.2	3	-0.1	-6	-15	0.2%
O=C(c1ccccc1F)N1C(=O)c2cccc3cccc1c23	-1.1	15	-0.6	-4	-9	1.8%
O=C(COc1ccccc1)NCC(=O)N1CCCC(C(F)(F)F)C1 (configuration not stated)	-2.3	2	0.6	2	-12	-4.6%
N#Cc1cc2ccccc2nc1SCC(=O)Nc1ccccc1N1CCOCC1	-1.8	22	1.4	-12	-23	6.8%
CCCc1[nH]c2ccc(C(=O)OC)cc2c1CCC	3.8	-7	1.5	0	-3	5.5%
Cc1ccccc1SCC(=O)NCC1(N2CCCCC2)CCCCC1	0.6	-12	-1.3	-4	-32	1.7%
O=C(Nc1ccccc1F)c1ccncc1	-0.9	9	-0.3	6	-1	-0.8%
Cc1ccc(Cn2c(C(C)Nc3nc(-c4ccc(F)cc4)cs3)nc3cc(Cl)c(Cl)cc32)cc1 (configuration not stated)	-1.1	25	0.0	8	2	5.5%
Cc1ccc(CN(C(=O)c2cc(=O)c3cc(C)cc(C)c3o2)C2CCS(=O)(=O)C2)cc1 (configuration not stated)	-6.1	-2	0.9	22	1	1.2%
COc1ccc(N2C(=O)C(CC(=O)Nc3ccccc3)N(Cc3ccc(OC)c(OC)c3)C2=O)cc1 (configuration not stated)	-3.5	11	1.6	30	-24	-1.9%
COc1cc(OC)cc(C(=O)NC(C(=O)NNC(=O)c2cc(Cl)ccc2OC)C(C)C)c1 (configuration not stated)	2.0	-8	-1.9	3	-17	1.2%
Cc1cccc(C)c1OC(=O)c1ccccc1	3.1	11	-0.8	6	4	12%
CCOC(=O)C1(Cc2ccccc2C)CCCN(C(=O)CSC)C1 (configuration not stated)	-3.2	-2	-0.3	3	-3	1.1%
Cn1c(-c2ccco2)n[nH]c1=S	-3.6	-18	-0.6	-1	-5	0.0%
CCOC(=O)CSc1nnc(-c2nnc(SCC(=O)OCC)n2CC)n1CC	13	3	-0.3	-4	9	nt
CCOC(=O)C1CCCN(CCC(=O)Nc2ccc(Br)c(C)c2)C1 (configuration not stated)	-0.8	-12	-1.1	-11	-8	1.9%
O=C(Nc1ccccn1)C12CC3CC(CC(C3)C1)C2	-3.6	3	0.4	1	-9	6.6%[38.3 µM]
O=C(CN1C2CCCC1CC(NC(=O)c1ccccc1)C2)NC1CC1 (configuration not stated)	0.4	2	1.2	-11	7	1.4%
Cc1ccccc1-c1noc(CCC(=O)NC2CCCCC2)n1	0.1	10	-0.2	16	-5	0.7%
CN(C)c1ccc(C(=S)N2CCN(Cc3ccccc3)CC2)cc1	-5.5	?	-0.9	-5	-25	-1.7%
COc1ccc(CCNC(=O)C2CCN(S(=O)(=O)N3CCCCC3)CC2)cc1OC	1.0	6	0.7	-21	-3	0.7%
O=c1[nH]c2c(oc3ccccc32)c(=O)n1Cc1ccccc1	-2.3	-8	1.3	-24	-11	4.1%
COc1ccc(/C=C/c2ccc3cccc(O)c3n2)cc1Br	-4.6	2	0.8	-7	-13	12%
CCN(c1ccccc1)S(=O)(=O)c1cccc(C(=O)NCC(c2ccco2)N2CCCC2)c1 (configuration not stated)	-2.1	9	-0.3	6	-38	-0.7%
Fc1ccc(-c2cc(C(F)(F)F)nc(-n3cccn3)n2)cc1	-9.6	0	nt	nt	-11	-0.5%
CC(=O)c1cccc(NC(=O)CN2C(=S)NC(C)(C)CC2C)c1 (configuration not stated)	-8.1	2	-0.8	-9	-9	1.7%
O=C(NCC(=O)N1CCC2(CC1)NCCc1[nH]cnc12)c1ccc(Br)cc1	-2.1	-1	0.2	0	-10	0.5%
CC(OC(=O)c1ccccc1O)C(=O)Nc1cccc(Cl)c1 (configuration not stated)	0.8	4	1.3	-1	0	2.2%
O=C(c1ccc(Cl)cc1)c1cnc(-c2ccccc2)s1	-1.4	13	0.7	2	-9	1.1%
COc1ccc(NC(=O)c2cccc(OS(=O)(=O)N(C)C)c2)cc1	2.7	-2	-0.9	-2	-5	3.4%
CCN1C(=O)[C@H]2[C@@H](c3ccc(OC)cc3)N[C@]3(CCCN(Cc4cccn4C)C3=O)[C@H]2C1=O	-2.0	8	-0.3	-3	2	2.0%
CC(=O)Nc1ccc(NC(=O)Cc2sc(-c3cccnc3)nc2-c2ccc(C)cc2)cc1	6.0	-6	-0.1	40	-2	0.3%

New compounds follow:
SMILES	D2 ag	Six1-Eya2 blk	TRPML1 agonist	TRPML1 inh	D2 potentiator	PINK1 modulator
CSc1ncc(F)c(N(CCO)CCO)n1	-0.4	1	0.1	20	-4	-0.3%
O=C(Nc1ccccc1F)C1CCN(C(=O)NCc2ccccc2)CC1	0.9	3	-0.2	2	-2	1.9%
COc1ccc(NC(=O)COC(=O)c2c(NC(C)=O)sc(C)c2C)cc1	-3.8	1	-0.2	30	-10	1.1%
CCOc1ccc(-c2nnc(-c3snc(-c4ccc(F)cc4)c3N=CN(C)C)o2)cc1	-1.4	9	0.3	18	-15	5.7%
O=C1c2ccccc2C(=O)C1(CO)c1ccc(OC(F)F)cc1	6.8	-1	1.1	17	-10	-0.1%
CC(=O)c1ccc(NC(=O)Nc2ccc3c(c2)nc(C)n3C)cc1	2.2	-7	0.3	8	2	-0.3%

Rewritten in markdown: part of the list above.
| SMILES | D2 ag | Six1-Eya2 blk | TRPML1 agonist | TRPML1 inh | D2 potentiator | PINK1 modulator |
| --- | --- | --- | --- | --- | --- | --- |
| CCN(c1ccccc1)S(=O)(=O)c1cccc(C(=O)NCC(c2ccco2)N2CCCC2)c1 (configuration not stated) | -2.1 | 9 | -0.3 | 6 | -38 | -0.7% |
| Fc1ccc(-c2cc(C(F)(F)F)nc(-n3cccn3)n2)cc1 | -9.6 | 0 | nt | nt | -11 | -0.5% |
| CC(=O)c1cccc(NC(=O)CN2C(=S)NC(C)(C)CC2C)c1 (configuration not stated) | -8.1 | 2 | -0.8 | -9 | -9 | 1.7% |
| O=C(NCC(=O)N1CCC2(CC1)NCCc1[nH]cnc12)c1ccc(Br)cc1 | -2.1 | -1 | 0.2 | 0 | -10 | 0.5% |
| CC(OC(=O)c1ccccc1O)C(=O)Nc1cccc(Cl)c1 (configuration not stated) | 0.8 | 4 | 1.3 | -1 | 0 | 2.2% |
| O=C(c1ccc(Cl)cc1)c1cnc(-c2ccccc2)s1 | -1.4 | 13 | 0.7 | 2 | -9 | 1.1% |
| COc1ccc(NC(=O)c2cccc(OS(=O)(=O)N(C)C)c2)cc1 | 2.7 | -2 | -0.9 | -2 | -5 | 3.4% |
| CCN1C(=O)[C@H]2[C@@H](c3ccc(OC)cc3)N[C@]3(CCCN(Cc4cccn4C)C3=O)[C@H]2C1=O | -2.0 | 8 | -0.3 | -3 | 2 | 2.0% |
| CC(=O)Nc1ccc(NC(=O)Cc2sc(-c3cccnc3)nc2-c2ccc(C)cc2)cc1 | 6.0 | -6 | -0.1 | 40 | -2 | 0.3% |
| CSc1ncc(F)c(N(CCO)CCO)n1 | -0.4 | 1 | 0.1 | 20 | -4 | -0.3% |
| O=C(Nc1ccccc1F)C1CCN(C(=O)NCc2ccccc2)CC1 | 0.9 | 3 | -0.2 | 2 | -2 | 1.9% |
| COc1ccc(NC(=O)COC(=O)c2c(NC(C)=O)sc(C)c2C)cc1 | -3.8 | 1 | -0.2 | 30 | -10 | 1.1% |
